Bioassay records deposited in PubChem by ICCB-Longwood Screening Facility, Harvard Medical School.
MgrA-DNA mod – modulators of Staphylococcus aureus MgrA DNA binding. inhibition, %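 (about 10 µg/mL by stock and volumes)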. fluorescence polarization. 84,000 compounds, 0.13% hits. AID 602314;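 active means above 50% in either of two replicates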;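 further: 0% = protein plus DNA without compound and 100% = DNA alone without protein; higher means less MgrA bound to DNA so lower polarization; one replicate is shown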
S aureus helic – S. aureus DNA helicase inhibition | purified S. aureus helicase, fluorescence unwinding assay; about half of the hits fall short of the stated cut | inhibition, %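 (tested at about 80 µM)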 | 120,000 compounds, 0.05% hits | AID 485395;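 active means both duplicates at 50% or more, or one of them with a favoured structure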;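 further: 0% = mean of negative control wells and 100% = mean of positive control wells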
* = called active by the depositor; / = no result given; & = joins results of further samples. These rows are one share of the data, so the mix of outcomes need not match the whole.

SMILES	MgrA-DNA mod	S aureus helic
CC(C)Cn1c(=O)c(-[n+]2ccccc2)c([O-])c2ccccc21	1.6	-1
CCOCCC(=O)Nc1ccccc1C(F)(F)F	2.6	-16
Fc1cc2n[nH]nc2cc1Cl	-1.5	/
CC(CN1C(C)CCCC1C)OC(=O)c1ccc(Cl)cc1 (stereo unspecified)	/	-30
NC(=O)C1CCN(CC(=O)N2N=CCC2c2ccccc2)CC1 (stereo unspecified)	-1.4	18
O=C(Nc1cccc2cccnc12)C(Cl)(Cl)Cl	0.8	/
CC1CCN(S(=O)(=O)N2CCCC(C(=O)O)C2)CC1 (stereo unspecified)	/	-5
CC(=C1C(=O)c2ccccc2C1=O)N1CCN(Cc2ccccc2)CC1	0.2	3
CS(=O)(=O)N1CCN=C1SCc1ccc(C(F)(F)F)cc1	/	21
O=C(/C=C/c1ccco1)OCC(=O)c1ccc(O)cc1O	/	-4
COc1ccc(C(C#N)(CCC#N)CCC#N)cc1	0.9	/
O=C1CCCc2nccc(-c3ccccc3)c21	-4.1	6
CC(c1ccccc1)n1cnc2ccccc2c1=O (stereo unspecified)	-1.8	5
CCS(=O)(=O)NCCc1csc(C)n1	0.0	1
COc1ccc(CC(=O)N(CC#N)CC#N)cc1OC	3.8	7
COc1ccc(C(=O)NCC(=O)NC2=NCCS2)cc1	/	10
O=C1NC(=Nc2ccc(Cl)cc2)SC1Cc1ccc(Cl)cc1 (stereo unspecified)	-1.6	/
CSc1cccc(N2CC(C(=O)O)CC2=O)c1 (stereo unspecified)	-3.2	-15
Cc1c(S(=O)(=O)N2CCCC2c2ccc(F)cc2)cnn1-c1ccccc1 (stereo unspecified)	0.1	/
COc1ccccc1NC(=O)c1ccc2c(c1)C(=O)N(CC1CCCO1)C2=O (stereo unspecified)	0.8	-5
CCOC(=O)c1ccc2ncc(C(=O)OCC)c(NCCCN3CCOCC3)c2c1	/	-7
O=c1c(S(=O)(=O)c2ccccc2)c[nH]c2ccccc12	/	0
COc1ccc(C(=O)N(CC#N)CC#N)cc1OC	-1.1	22
O=P(c1ccccc1)(c1ccccc1)C(O)c1ccc2c(c1)OCO2 (stereo unspecified)	-5.0	-1
COc1cc(C(C(=O)Nc2c(C)cccc2C)N(C)C(=O)c2ccc(-n3cnnn3)cc2)ccc1O (stereo unspecified)	/	13

Individual results from the entries so far.
In MgrA-DNA mod, CCOCCC(=O)Nc1ccccc1C(F)(F)F has 2.6
In S aureus helic, CSc1cccc(N2CC(C(=O)O)CC2=O)c1 (stereo unspecified) has -15

(next part)
SMILES	MgrA-DNA mod	S aureus helic
CC1(C)Cc2cccc(OCC(=O)OCC(=O)c3ccc4[nH]c(=O)[nH]c4c3)c2O1	/	11
CN1CCN(C(=O)c2cn(-c3ccccc3)nc2-c2cccs2)CC1	/	11
CC(=O)NCc1ccccc1	/	7
CCN(CC)S(=O)(=O)c1ccc2oc(C(=O)Nc3cccc(Cl)c3)c(C)c2c1	0.1	7
CSc1ncc(C(=O)NCc2ccccc2)c(C)n1	5.2	3
O=C(O)CCN=C1CCc2ccccc2N1	/	-27
CC(C)(C)Oc1ccc(CC(CO)NC(=O)OCC2c3ccccc3-c3ccccc32)cc1 (stereo unspecified)	0.0	/
c1nc(NC2CCCC2)c2c3c(sc2n1)CCC3	-4.3	-3
COc1ccc(/C=N/S(=O)(=O)c2ccccc2)c(OC)c1	/	-19
COc1cc(/C=N/NC(=S)NCc2ccco2)ccc1O	/	-3
CCCc1ccc(C(=O)NNC(=O)c2ccc(-n3c(C)ccc3C)cc2)cc1	-2.2	/
O=C1C=CC(=NS(=O)(=O)c2cccs2)C=C1	/	-23
CC(NC(=O)c1ccc(N(C)C)cc1)C(c1cccs1)N1CCN(C)CC1 (stereo unspecified)	/	-1
c1ccc(Nc2nc(Nc3ccccc3)nc(Sc3nc4ccccc4[nH]3)n2)cc1	3.0	1
FC(F)(F)c1nnc2ccc(-n3ccnc3)nn12	-0.5	6
CCC(=O)c1c[nH]c(C(=O)NCc2cccs2)c1	-1.1	/
O=C1CC(c2ccccc2)CC(O)=C1C=NCc1ccccn1 (stereo unspecified)	3.2	14
O=C(c1cc2sccc2n1Cc1ccccc1)N1CCCC1	-1.6	7
O=C(CSc1ncn[nH]1)Nc1ccccc1Cl	0.2	7
O=C1N=c2ccc(F)cc2=C1c1sc(=Nc2ccccc2)n(-c2ccccc2)c1O	0.4	/
CC1=C(C(=O)Nc2ccccc2Br)C2(CCCCC2)OC1=O	0.4	-4
Cc1ccc(S(=O)(=O)N2CCN(S(=O)(=O)c3ccc(C)cc3)CC2)cc1	-0.2	-1
Cc1onc(-c2c(Cl)cccc2Cl)c1NC(=O)N1CCCC1=O	0.6	/
CCOC(=O)c1sc(NC(=O)CC)nc1C	3.0	6
CN1C=C(C(F)(F)F)C=C/C1=C(/C#N)c1nnc2n1CCCCC2	/	-13

Structures listed so far that have a cyano group (4):
SMILES	MgrA-DNA mod	S aureus helic
COc1ccc(C(C#N)(CCC#N)CCC#N)cc1	0.9	/
COc1ccc(CC(=O)N(CC#N)CC#N)cc1OC	3.8	7
COc1ccc(C(=O)N(CC#N)CC#N)cc1OC	-1.1	22
CN1C=C(C(F)(F)F)C=C/C1=C(/C#N)c1nnc2n1CCCCC2	/	-13

(more compounds)
SMILES	MgrA-DNA mod	S aureus helic
Cc1oc2c(F)c(F)c(F)c(F)c2c1/C(N)=N/O	-0.3	/
Cc1ncc(CO)c2cc(C(=O)NC3=CC4OCOC4C=C3)c(=Nc3ccccc3)oc12 (stereo unspecified)	0.6	2
Cc1ccc2nc(NC(=O)Cn3cccc3)sc2c1	/	9
CN1C(=O)C(C)(C)Nc2ccccc21	/	-23
CC1Cc2ccccc2N1Cc1ccc(-n2ccnc2)cc1 (stereo unspecified)	/	-4
CN(C)S(=O)(=O)c1ccc(C(=O)Nc2sc3c(c2C#N)CCC3)cc1	/	8
CC(C)C1N=C2c3ccccc3N=C(SCC(=O)c3ccc(Br)cc3)N2C1=O (stereo unspecified)	-0.2	8
Fc1ccccc1-c1ncc2ccccn12	/	1
Fc1ccc(NCc2c[nH]c3ccccc23)cc1	1.7	-7
O=C(Cc1ccccc1)Sc1ncn[nH]1	3.2	1
CC(C)C(=O)Nc1cc(-c2ccccc2)no1	/	-19
c1ccc2c(c1)CCCN2Cc1cn2ccccc2n1	-1.2	5
COc1ccc(-c2nnc(SCc3ccc(C#N)cc3)n2CC(C)C)cc1	/	1
COc1ccccc1Nc1nnc(SCC(=O)Nc2ccnn2C(C)C)s1	/	-8
CCCCOc1ccc(C(=O)Nc2cccc(NC(=O)c3ccco3)c2)cc1	1.4	6
Cc1ccc(N(C2C=CS(=O)(=O)C2)S(=O)(=O)c2ccccc2)cc1 (stereo unspecified)	/	-19
COc1ccc(C(Nc2cc(C)ccn2)c2ccc3cccnc3c2O)cc1O (stereo unspecified)	/	-31
COc1ccc(C(=S)N2CCCCC2)cc1OC	7.7	17
CCCC(CCC)C(=O)N1CCNc2ccccc2C1	9.7	6
C/C=C/c1n(C)c2ccccc2[n+]1C	/	17&6
CCn1c(CSc2ccc(OC)cc2)nc2cc(S(=O)(=O)N3CCCCC3)ccc21	/	-3
CC1CC(N)C(=O)O1 (stereo unspecified)	/	7
N#Cc1cccc(C(=O)Nc2ccc(S(=O)(=O)N3CCCCC3)cc2)c1	/	0
COc1ccc(C2=NN(S(=O)(=O)c3ccccc3)C(c3ccc(OC)cc3)C2)cc1 (stereo unspecified)	0.3	/
CN(C(=O)N1c2ccccc2Sc2ccccc21)c1ccccc1	-0.2	14
Carrying on:
SMILES	MgrA-DNA mod	S aureus helic
O=C(OC1CCCC1)c1c(F)cccc1Cl	/	-12
CC(=O)Nc1c(C(=O)c2ccccc2)oc2ccccc12	-1.4	8
CSCc1c(C(=O)Nc2ccccc2N2CCOCC2)oc2ccccc12	/	5
COc1ccccc1N1CCN(CC(=O)c2ccc(F)cc2)CC1	-6.4	7
C=CCOc1c(-c2ccco2)oc2ccccc2c1=O	2.7	5
COc1ccc(-c2csc3c(C#N)c(C)cc(=O)n23)cc1	/	-5
O=C(CSc1ncc(C(F)(F)F)cc1Cl)N1CCNC1=O	/	0
CCOc1ccc(NC(=O)NCCCN2CCCC2)cc1	-0.2	6
Cc1c(Br)c(C(F)(F)F)nn1CC(=O)Nc1cc(Oc2cccnc2)cc([N+](=O)[O-])c1	-0.2	/
CCOC(=O)c1ccc(NC(=O)c2cnn3ccccc23)cc1	/	4
O=S1(=O)CCC(NC2CCCCC2)C1 (stereo unspecified)	-0.7	3
O=C1Nc2ccccc2O/C1=C\c1ccc(C(=O)NC2CCCCC2)cc1	-0.5	-1
Cc1ccc(Cl)cc1N(C)C(=O)c1cc2c(C)nc3ccccc3c2o1	2.0	2
CC(c1ccccc1)n1c(OC(=O)N(C)C)nnc1SCC(=O)c1ccc2c(c1)OCCO2 (stereo unspecified)	-0.5	/
O=C(c1cncc(NS(=O)(=O)c2ccc(Cl)cc2)c1)N1CCc2ccccc21	/	1
CCOc1ccc(N2CC(C(=O)Nc3ccccc3C(=O)N3CCOCC3)CC2=O)cc1 (stereo unspecified)	-3.3	16
CCn1nc(C)c(Br)c1-c1nc(CS(=O)(=O)c2ccc(F)cc2)no1	/	-15
O=C(NC1=NCCS1)c1ccco1	-3.0	/
Cc1cc(C)n(C2=NCCN2C=C(C#N)C#N)n1	/	-12
O=c1cc(O)c2cccc3c2n1CCC3	-2.0	/
COc1cccc(C(=O)Nc2ccc3oc(-c4cccc(Br)c4)nc3c2)c1	-0.5	/
Brc1cccc(-c2n[nH]c(-c3ccccc3)n2)c1	-1.3	8
CCSc1nc(C)c(C)c(C)c1C#N	/	-9
N#CCc1nc(-c2ccc(Cl)cc2)cs1	-1.8	/
OC1(C(F)(F)F)CC(/C=C/c2cccs2)=NN1 (stereo unspecified)	-2.5	14
Further results follow:
SMILES	MgrA-DNA mod	S aureus helic
CCc1ccc(NC(=O)C(CC)Sc2nc3nccnc3c(=O)n2CCc2ccccc2)cc1 (stereo unspecified)	-1.9	0
CCN(CC)/C(=N/OCc1ccc(Cl)cc1Cl)c1nonc1N	3.5	8
CCN(c1ccccc1)S(=O)(=O)c1cc2c(cc1C)n(C)c(=O)c(=O)n2C	/	8
Cn1c(SCC(=O)O)nc2ccccc21	0.2	-8
FC(F)(F)c1ccc(-n2nnnc2-c2cnccc2C(F)(F)F)cc1	-0.9	/
CCCCC1(CO)C(=O)N(c2ccccc2)N(c2ccccc2)C1=O	-2.6	/
Cc1ccc(NC(=O)CN2C(=O)S/C(=C/c3ccc(C)o3)C2=O)cc1	-3.6	-18
CCOc1ccc(OCCOC(=O)c2ccc(O)cc2)cc1	/	-7
Cn1c(SCc2ccccc2)nnc1C1CCN(C(=O)NCc2ccccc2)CC1	-1.8	4
O=C(/C=C/c1ccccc1)N1CCN(C(=O)/C=C/c2ccccc2)CC1	/	19
C/C(=N/O)c1[nH]c(C)c(/C(C)=N\O)c1C	-0.3	13
COC(=O)c1ccc(Cl)cc1NC(=O)N1CCC(CN2CCOCC2)CC1	/	23
CS(=O)(=O)N(Cc1ccccc1)Cc1nc2ccccc2c(=O)[nH]1	-0.6	-7
COc1ccc(C(=O)CSc2nnc(Cc3cccs3)n2C2CC2)cc1	/	5
CC1CN(CC(O)COCc2ccccc2)CC(C)O1 (stereo unspecified)	/	-17
O=C(Nc1nc(-c2ccc3c(c2)OCO3)cs1)c1cc(=O)c2ccccc2o1	4.1	/
COc1ccccc1C(=O)Nc1ccc(S(=O)(=O)NC2=NCCCCC2)cc1	/	-3
CC1=CCC(C(=O)Nc2nc3ccccc3s2)C(C(=O)O)C1 (stereo unspecified)	0.9	5
Cc1cc(N2CCN(C)CC2)ccc1NC(=O)c1ccc2c(c1)NC(=O)C(C)S2 (stereo unspecified)	/	-2
COc1ccc(NCc2csc(-c3ccccc3)n2)cc1Cl	0.1	1
Cc1cc2nc3s/c(=C\c4ccc(-c5cccc(F)c5)o4)c(=O)n3c2cc1C	/	-14
CNS(=O)(=O)c1cc(C(=O)Nc2nnc(C3CC3)s2)ccc1Cl	/	-13
O=C(CCn1cccc1)N1CCN(c2ccccc2)CC1	/	3
Cc1ccc(C(=O)NCc2ccc3c(c2)cc(C)n3C)cc1	-0.7	16
Cc1cc(C)c2c(C(C)(C)C)nn(-c3ccc(C(=O)O)cc3)c2n1	16	-9
(listing goes on)
SMILES	MgrA-DNA mod	S aureus helic
CCOC(=O)N1CCc2c(sc(NC(=O)c3ccc(S(=O)(=O)N4CCOCC4)cc3)c2C(=O)N2CCOCC2)C1	/	11
O=C(CC12CC3CC(CC(Br)(C3)C1)C2)Nc1nncs1	0.6	-19
O=C1c2ccccc2C(=Cc2cccs2)c2ccccc21	0.9	3
Cc1ccc(NC(=S)Nc2cc(C)cc(C)c2)cc1	1.7	/
O=C(Nc1sc2c(c1C(=O)NCc1ccco1)CCC2)c1ccc(F)cc1	-0.7	-16
CC(C)N(C(C)C)S(=O)(=O)c1ccc(N2CCC(C(N)=O)CC2)nc1	/	17
CC(=O)Nc1cccc(-n2nnc(SCc3cc(Cl)cc4c3OCOC4)n2)c1	-0.3	/

Some of the entries above in another layout:
canonical_smiles: CC(=O)Nc1cccc(-n2nnc(SCc3cc(Cl)cc4c3OCOC4)n2)c1
- MgrA-DNA mod = -0.3
- S aureus helic = /
canonical_smiles: O=C(Nc1sc2c(c1C(=O)NCc1ccco1)CCC2)c1ccc(F)cc1
- MgrA-DNA mod = -0.7
- S aureus helic = -16

Complete entries, looked up by structure. Screens in order: MgrA-DNA mod | S aureus helic
`CCOC(=O)N1CCc2c(sc(NC(=O)c3ccc(S(=O)(=O)N4CCOCC4)cc3)c2C(=O)N2CCOCC2)C1` across the screens: / | 11
`CC(C)N(C(C)C)S(=O)(=O)c1ccc(N2CCC(C(N)=O)CC2)nc1` across the screens: / | 17
`O=C(CC12CC3CC(CC(Br)(C3)C1)C2)Nc1nncs1` across the screens: 0.6 | -19
`O=C1c2ccccc2C(=Cc2cccs2)c2ccccc21` across the screens: 0.9 | 3
`CC(=O)Nc1cccc(-n2nnc(SCc3cc(Cl)cc4c3OCOC4)n2)c1` across the screens: -0.3 | /
